Assay outcomes deposited in PubChem by several laboratories.
UCH37 inh: blocks the human deubiquitinase UCH37. Q9Y5K5. purified proteasome/UCH37, Ub-AMC cleavage fluorescence. inhibition, % (test concentration not listed). 330,000 compounds, 0.33% hits;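 active means mean of two replicates above 20%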;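 further: 0% = compound-free wells with enzyme and 100% = wells lacking proteasome; stock transfer was 100 nL into about 20 µL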
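Assay system: Proteasome-bound UCH37. Buffer or medium: pH 7.4 Tris-HCl (50 mM) with ovalbumin, ATP-MgCl2, DTT. Incubation: 30 min preincubation with enzyme, 25 min cleavage at room temperature. Measured by: fluorescence, ex 355 nm, em 460 nm. Read-out basis: percent inhibition. Control set: wells without proteasome as full block, compound-free enzyme plus substrate as uninhibited.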
Beta2AR agonist: human beta-2 adrenergic receptor agonism by FAP; P07550; Am2.2-beta2AR cells, FAP receptor internalization, flow cytometry; reference of the scale not given here; response, % (no concentration beside the values); 340,000 compounds, 0.43% hits; AID 504454;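 active means response above a set limit, near 3 SD of response in nonfluorescent compounds, cut at about 42% in these data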;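 further: stock transfer was 100 nL into about 11 µL; a reference agonist was the positive control; negative values mostly stem from fluorescent compounds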
Target sequence (P07550 whole entry, looked up): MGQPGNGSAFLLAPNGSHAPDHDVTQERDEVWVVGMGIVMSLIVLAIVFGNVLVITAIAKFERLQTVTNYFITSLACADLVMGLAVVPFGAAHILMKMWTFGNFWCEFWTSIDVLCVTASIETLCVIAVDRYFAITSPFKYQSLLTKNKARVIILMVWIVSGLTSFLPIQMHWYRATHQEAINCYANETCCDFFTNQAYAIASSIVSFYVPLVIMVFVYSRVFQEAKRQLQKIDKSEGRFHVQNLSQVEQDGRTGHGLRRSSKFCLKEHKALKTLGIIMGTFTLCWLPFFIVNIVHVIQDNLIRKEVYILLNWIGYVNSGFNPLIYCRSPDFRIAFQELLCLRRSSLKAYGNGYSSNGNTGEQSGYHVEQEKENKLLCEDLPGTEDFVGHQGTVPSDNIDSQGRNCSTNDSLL
Vif TR-FRET: inhibitors of Vif binding to APOBEC3G peptide, primary screen, biochemical, TR-FRET, GST-Vif 1-94, biotin-A3G peptide, dose response retest (AID 1117319). inhibition, %; hits with a dose series show IC50 in µM. TR-FRET GST-Vif / biotin-A3G peptide binding; higher % means a stronger effect; test concentration not given here; strong numbers were not always called active. 260,000 compounds, 0.57% hits;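 active means above the screen mean plus three standard deviations and confirmed in dose response; inconclusive means results disagree or hit not tested in dose response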;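 further: Vif residues 1-94 fused to GST binding biotinylated APOBEC3G peptide 110-148; 0% = full assay without inhibitor and 100% = GST in place of GST-Vif; retest series ran down from 100 µM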
HNF4A DNA FP: change in binding of human HNF4 alpha to DNA | P41235 | HNF4a-FITC DNA binding, fluorescence polarization, 1 h | activity change, % at 10 µM | 360,000 compounds, 0.3% hits | AID 1224865; in the data active means activity change above about 30%, passing the limit was not always enough;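 further: controls were the assay level and a saturating level of protein; the project sought stronger binding though the title names inhibitors; some compounds called inactive have numbers as strong as hits; positive values seem to mean higher polarization but the record does not say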
Target sequence (P41235 whole entry, looked up): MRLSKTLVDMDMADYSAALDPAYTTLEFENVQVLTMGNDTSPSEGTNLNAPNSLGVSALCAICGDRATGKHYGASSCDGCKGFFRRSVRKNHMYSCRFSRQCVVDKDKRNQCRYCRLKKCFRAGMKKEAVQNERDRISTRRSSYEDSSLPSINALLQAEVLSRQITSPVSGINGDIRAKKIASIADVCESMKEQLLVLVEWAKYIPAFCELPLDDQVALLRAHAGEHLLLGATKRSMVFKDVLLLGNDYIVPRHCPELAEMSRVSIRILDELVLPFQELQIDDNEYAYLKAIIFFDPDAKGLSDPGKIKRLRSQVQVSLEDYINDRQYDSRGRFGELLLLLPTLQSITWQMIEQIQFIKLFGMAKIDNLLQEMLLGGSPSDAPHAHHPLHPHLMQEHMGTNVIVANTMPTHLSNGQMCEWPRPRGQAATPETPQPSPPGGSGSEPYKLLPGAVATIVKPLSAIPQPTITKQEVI
E coli growth: blocks Escherichia coli growth. OD600, 23 h; hits give low values. OD600 absorbance (test concentration not listed). 330,000 compounds, 0.21% hits. AID 1053175;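 active means OD600 absorbance below the run mean of sample wells minus 3.6 SD, in any replicate, cut at about 0.56 in these data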;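 further: stock transfer was 300 nL into about 60 µL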
LANA-H2A inh: blocks KSHV LANA binding to histone H2A/H2B; Q9QR71; cell-free LANA-H2A/H2B peptide, fluorescence polarization; inhibition, % (no concentration beside the values); 320,000 compounds, 0.6% hits; AID 2629; in the data active means inhibition mostly above about 10%, no sharp cut-off; inactive means mostly below about 6.7%;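 further: stock transfer was 7.5 nL into about 10 µL; 0% = median of vehicle wells and 100% = median of positive control wells; one replicate is shown; the record names a cut of 25% in any replicate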
Bfl-1 A1 inh: inhibitors of the anti-apoptotic protein A1, read as caspase activation | AID 2462 | caspase activation, % (concentration not given with the values) | 330,000 compounds, 0.066% hits | MEF A1-2A-BIM cells, Caspase-Glo 3/7 luminescence, 3 h; percent of clofoctol response, vehicle zero;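 active means over half of replicate activation scores above 10%, or exactly half above 10 with the replicate mean above 10; inconclusive means replicate mean below 10 yet half the replicates above 10; inactive means over half of replicates below 10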;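 further: wells of about 30 µL received 50 nL stock; many hits fall short of the cut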
* = called active by the depositor; i = inactive; ? = inconclusive; . = not tested or not shown.

Structure	UCH37 inh	Beta2AR agonist	Vif TR-FRET	HNF4A DNA FP	E coli growth	LANA-H2A inh	Bfl-1 A1 inh
CN(C(=O)c1cccc(NC(=O)Cc2ccc(NC(=O)C3CCCN(C(=O)CCc4ccccc4)C3)cc2)c1)C1CCCCC1 (stereo not drawn)	0.9	14	.	4.8	0.71	.	.
COc1ccc(N/C=C/C(=O)c2sc(-c3ccccc3)nc2C)cc1	4.7	-2	19%	23	0.72	-4.0	0.5
CCC(C)NC(=O)c1c(N)n(/N=C/c2ccccn2)c2nc3ccccc3nc12 (stereo not drawn)	.	17	4%	1.6	.	1.1	.
O=C1CN(C(=O)COC(=O)CCc2ccccc2O)c2ccccc2N1	1.3	3	.	5.4	0.71	1.1	-0.6
CC(=O)c1cccc(NC(=O)NC2CCCCC2)c1	-1.4	-6	0%	0.9	0.7	-3.8	0.0
COc1ccc(/C=N/NC(=O)CCc2nc3ccccc3[nH]2)cc1	.	2	-4%	1.0	.	-2.0	0.4
COc1cc2c(cc1OC)CN(c1ccc(-c3ccccc3OC)nn1)CC2	.	11	20%	-0.5	.	-2.2	0.2
Cc1ccc(C)c(NC(=O)Cc2csc(-c3ccccc3)n2)c1	5.4	-6	.	0.6	0.71	-0.8	0.4

Compounds shown so far with four or more nitrogen atoms, in the order listed:
Structure	UCH37 inh	Beta2AR agonist	Vif TR-FRET	HNF4A DNA FP	E coli growth	LANA-H2A inh	Bfl-1 A1 inh
CN(C(=O)c1cccc(NC(=O)Cc2ccc(NC(=O)C3CCCN(C(=O)CCc4ccccc4)C3)cc2)c1)C1CCCCC1 (stereo not drawn)	0.9	14	.	4.8	0.71	.	.
CCC(C)NC(=O)c1c(N)n(/N=C/c2ccccn2)c2nc3ccccc3nc12 (stereo not drawn)	.	17	4%	1.6	.	1.1	.
COc1ccc(/C=N/NC(=O)CCc2nc3ccccc3[nH]2)cc1	.	2	-4%	1.0	.	-2.0	0.4

One compound at a time, from the list above. Order of screens: UCH37 inh | Beta2AR agonist | Vif TR-FRET | HNF4A DNA FP | E coli growth | LANA-H2A inh | Bfl-1 A1 inh
Profile of CN(C(=O)c1cccc(NC(=O)Cc2ccc(NC(=O)C3CCCN(C(=O)CCc4ccccc4)C3)cc2)c1)C1CCCCC1 (stereo not drawn) → 0.9 | 14 | . | 4.8 | 0.71 | . | .
Profile of Cc1ccc(C)c(NC(=O)Cc2csc(-c3ccccc3)n2)c1 → 5.4 | -6 | . | 0.6 | 0.71 | -0.8 | 0.4
Profile of COc1ccc(N/C=C/C(=O)c2sc(-c3ccccc3)nc2C)cc1 → 4.7 | -2 | 19% | 23 | 0.72 | -4.0 | 0.5

Remaining list, next part:
Structure	UCH37 inh	Beta2AR agonist	Vif TR-FRET	HNF4A DNA FP	E coli growth	LANA-H2A inh	Bfl-1 A1 inh
COC(=O)c1sccc1NC(=O)Nc1ccc(C)c(C)c1	2.0	8	-11%	5.7	0.7	2.3	0.7
COc1cc(-c2cc(C(=O)O)c3cc4c(cc3n2)OCCO4)cc(OC)c1OC	5.7	12	1%	0.4	0.67	-17	0.0
Cc1nc(NC(=S)NC(=O)c2cccs2)ccc1Br	-0.4	-12	-5%	1.2	0.69	7.6	0.2
CC(C)C[C@@H](CNCC(=O)[C@H](CC(C)C)NC(=O)c1[nH]cnc1C(=O)N[C@@H](C)CN)NC(=O)c1nc[nH]c1C(=O)N[C@@H](Cc1ccccc1)C(=O)O	.	0	1%	1.4	.	.	.
Cc1ccc(N(CC(=O)N/N=C/c2ccc(OCC(N)=O)cc2)S(C)(=O)=O)cc1Cl	.	-9	1%	3.1	.	-0.3	-0.2
CN(C)S(=O)(=O)c1cccc(NC(=O)CNCC2CCCCC2)c1	-0.1	0	-6%	3.4	0.7	4.0	0.6
COC(=O)c1ccccc1-c1c2ccc(=N)cc-2oc2cc(N)ccc12	.	.	14µM*	-96	.	192*	2.0
CCOC(=O)c1c(C)[nH]c(C)c1C(=O)COC(=O)c1ccc(S(=O)(=O)C(F)F)cc1	-0.5	0	3%	3.4	0.67	-0.4	2.1
CCOc1ccccc1N(CC(=O)N1CCCCCC1)S(=O)(=O)c1ccc(C)cc1	0.9	10	.	1.2	0.73	-35	0.8
O=c1cc(-c2ccccc2F)oc2ccccc12	-2.2	0	18%	0.8	0.66	-8.8	-2.1
Cc1cnc(C(=O)Nc2ccc(S(=O)(=O)NCC(C)C)cc2)cn1	-1.4	5	-5%	0.3	0.7	-4.4	0.7
CCOC(=O)C1=C(C)NC(C)=C(C(=O)OCC)C1C(=O)OCC(=O)N1CCc2ccccc21	-6.7	3	-6%	-6.3	0.71	1.3	0.1
O=C(NCCNC(=O)c1ccc(Br)o1)c1cccnc1	0.7	-2	3%	2.2	0.71	0.3	-0.5
COc1ccccc1-c1c(C)oc2c(CN3CCOCC3)c(O)ccc2c1=O	i	-21	9%	1.4	0.62	0.8	0.7
COc1ccc(OC)c(/C(O)=C/C(=O)C(=O)Nc2cc(C)cc(C)c2)c1	.	1	17%	2.5	.	-2.1	-0.3
CCOC(=O)N1CCN(C(=O)c2ccc(OC(C)=O)cc2)CC1	2.8	3	.	1.4	0.67	2.3	-0.3
COc1ccc(S(=O)(=O)NCCC(=O)Nc2ccc(C)cc2)cc1	2.7	-8	-2%	-0.1	0.69	2.4	0.6
CCOc1ccccc1C(=O)Nc1c[nH]c(=O)[nH]c1=O	.	-3	2%	-1.6	.	-3.7	0.1
COCCCNC(=O)c1cc2cc([N+](=O)[O-])cc(OC)c2oc1=O	.	-2	6%	-0.1	.	-2.9	0.4
CCN1CCN(C(=O)CN(c2ccc(F)c(Cl)c2)S(C)(=O)=O)CC1	1.8	9	4%	0.7	0.65	-0.2	-0.2
O=C(c1cccs1)N1CCC(Cc2ccccc2)CC1	2.5	5	4%	-8.9	0.68	-1.2	0.8
CCc1nc2ccc(C)cc2c(C(=O)NC2CCCCC2C)c1C (stereo not drawn)	1.6	2	-3%	2.5	0.71	-3.3	0.7
Cc1ccc(C(=O)NCCn2cc(SCC(=O)Nc3nnc(C)s3)c3ccccc32)cc1	0.8	-4	-2%	-0.1	0.77	0.8	0.8
CC1(c2nnc(Cc3ccccc3)o2)CC(c2ccccc2)=NO1 (stereo not drawn)	-2.0	-3	.	-1.6	0.66	-4.9	-0.7

Some entries already given with just Beta2AR agonist.
SMILES | Beta2AR agonist
COc1ccc(S(=O)(=O)NCCC(=O)Nc2ccc(C)cc2)cc1 | -8
CCOc1ccccc1C(=O)Nc1c[nH]c(=O)[nH]c1=O | -3

Continued:
Structure	UCH37 inh	Beta2AR agonist	Vif TR-FRET	HNF4A DNA FP	E coli growth	LANA-H2A inh	Bfl-1 A1 inh
CC(C)CN1C(=O)C(=O)N(CC(=O)N2CCC(Cc3ccccc3)CC2)C1=O	2.4	7	0%	3.8	0.66	-1.9	0.2
CCOC(=O)c1c(C)c(C(=O)NCc2ccco2)c(C)n1CC	3.3	-6	5%	3.0	0.7	-5.9	0.5
COC(=O)c1[nH]c2c(c1C)C(=O)CCC2	-1.3	-1	-2%	4.9	0.65	1.0	-0.3
COc1ccc(-n2c(-c3ccc(Br)cc3)c[n+]3c2CCC3)cc1	.	-9	7%	0.3	.	2.2	-0.3
COc1ccccc1C(=O)C1CCCN(C(=O)c2ccco2)C1 (stereo not drawn)	-0.8	-2	.	0.2	0.71	-2.0	0.7
COc1ccc2c(c1)O[C@H](c1ccc3c(c1)OCO3)[C@@H](OC(=O)N[C@H](C)C1CCCCC1)C2=O	3.7	.	?	.	.	0.0	0.1
Cc1ccc2cc3cc(C(=O)N4CCCCC4C)oc3nc2c1 (stereo not drawn)	-5.5	10	-5%	2.9	0.69	-0.8	-2.1
O=C(COC(=O)C1=COCCO1)NCc1ccc(Cl)cc1	4.2	11	-6%	-0.9	0.65	-4.0	-0.7

Going on with the list.
mol	UCH37 inh	Beta2AR agonist	Vif TR-FRET	HNF4A DNA FP	E coli growth	LANA-H2A inh	Bfl-1 A1 inh
CC1CCC(C(C)C)C(OP(=O)(c2ccccc2)C(O)c2ccncc2)C1 (stereo not drawn)	-1.4	29	-7%	2.8	0.64	-3.1	0.8
C=CCc1ccccc1OCC(O)CN1CCN(C(=O)OCC)CC1 (stereo not drawn)	0.0	0	1%	-2.4	0.71	0.5	0.3
O=C(COC(=O)c1cc(S(=O)(=O)N2CCOCC2)ccc1O)Nc1cc(S(=O)(=O)N2CCCC2)ccc1Cl	-8.4	9	-20%	0.4	0.68	-2.6	-0.8
NC(=O)C1CCN(C(=S)NCCc2ccccc2)CC1	5.8	-2	-7%	2.4	0.67	2.5	0.3
O=C(COC(=O)/C=C/c1ccc(Cl)cc1)Nc1ccccc1	1.0	-2	8%	-2.0	0.69	1.4	0.5
CCC(=O)Nc1cc2c(cc1C(=O)CC)OCCO2	-0.8	-9	65%	-1.2	0.74	-5.7	0.7
CCOC(=O)CN(C(=O)CN1CCC(n2nnc3cc(C)ccc32)CC1)c1ccccc1	1.5	0	-4%	-0.1	0.7	-2.9	2.1
CCOC(=O)Cn1c(=O)sc2ccccc21	0.9	3	20%	1.9	0.72	0.8	-0.9
Cc1cccc(C(=O)OCC(=O)Nc2ccc(F)cc2)c1	1.8	-2	.	1.0	0.63	-3.7	0.0
CN(CC(O)CON=C1c2ccccc2-c2ccccc21)S(=O)(=O)c1ccc(Br)cc1 (stereo not drawn)	2.7	-2	.	4.1	.	.	0.2
CCC1=C(OC(=O)N(CC)CC)N2C(=O)OC(=NCC(=O)OC)[C@]2(C)[C@H]2C1=CC[C@H]1C(=O)N(CC(=O)OC)C(=O)[C@H]12	2.1	-1	9%	-0.7	.	-0.9	1.0
O=C(Nc1nsc(-c2ccccc2)n1)c1ccncc1	0.1	-9	3%	-1.6	0.75	0.5	-1.6
Cc1oc(-c2ccccc2Cl)nc1CS(=O)CC(=O)NCCc1ccccc1 (stereo not drawn)	2.3	3	.	7.6	0.7	-6.2	0.5
O=C(CSc1nnc2sc3ccccc3n12)c1ccco1	1.5	-11	-2%	4.7	0.59	0.1	-1.5
C=C1CCC[C@]2(C)C[C@H]3OC(=O)C(CNC(C)CCCC(C)C)[C@H]3CC12 (stereo partly drawn)	7.2	-4	-6%	-4.0	0.65	-2.4	1.3
CCSc1nnc(NC(=O)Cc2ccc(OC)c(OC)c2)s1	5.3	3	-12%	-2.6	0.8	-3.6	-0.6
Cc1nc2c(F)c(F)c(C(F)(F)F)c(F)c2[nH]1	-0.8	6	-1%	-4.7	0.7	2.8	0.1
COc1ccc(NC(=O)COc2ccccc2C(=O)NCC(c2ccccc2)N(C)C)cc1Cl (stereo not drawn)	-0.2	-2	.	7.4	0.66	7.8	1.8
O=C(O)CC1c2ccccc2S(=O)(=O)N1Cc1ccccc1 (stereo not drawn)	2.3	3	.	4.2	0.64	12	0.5
